Source: PubChem BioAssay
NPR1 antag – antagonists of human natriuretic peptide receptor Npr1. actives 1.6% (n = 76,000). HEK293 hNpr1 GloSensor cGMP, ANP-stimulated luminescence. P16066. Potency, µM (series often up to 46.3 µM), for inactives: at the top dose activity change, negative = inhibition, hits mostly inhibitors; active = well fitted inhibition curve with a large enough effect; inconclusive = small, poorly fitted or top-dose-only effect; inactive = no such curve, though single readings can be large or run the other way;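 note: nearly all actives have a fitted effect of over 60% in size; nearly all hits also lower the signal before the agonist is added; a reference antagonist and vehicle were the controls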
Target sequence (P16066 whole entry, looked up): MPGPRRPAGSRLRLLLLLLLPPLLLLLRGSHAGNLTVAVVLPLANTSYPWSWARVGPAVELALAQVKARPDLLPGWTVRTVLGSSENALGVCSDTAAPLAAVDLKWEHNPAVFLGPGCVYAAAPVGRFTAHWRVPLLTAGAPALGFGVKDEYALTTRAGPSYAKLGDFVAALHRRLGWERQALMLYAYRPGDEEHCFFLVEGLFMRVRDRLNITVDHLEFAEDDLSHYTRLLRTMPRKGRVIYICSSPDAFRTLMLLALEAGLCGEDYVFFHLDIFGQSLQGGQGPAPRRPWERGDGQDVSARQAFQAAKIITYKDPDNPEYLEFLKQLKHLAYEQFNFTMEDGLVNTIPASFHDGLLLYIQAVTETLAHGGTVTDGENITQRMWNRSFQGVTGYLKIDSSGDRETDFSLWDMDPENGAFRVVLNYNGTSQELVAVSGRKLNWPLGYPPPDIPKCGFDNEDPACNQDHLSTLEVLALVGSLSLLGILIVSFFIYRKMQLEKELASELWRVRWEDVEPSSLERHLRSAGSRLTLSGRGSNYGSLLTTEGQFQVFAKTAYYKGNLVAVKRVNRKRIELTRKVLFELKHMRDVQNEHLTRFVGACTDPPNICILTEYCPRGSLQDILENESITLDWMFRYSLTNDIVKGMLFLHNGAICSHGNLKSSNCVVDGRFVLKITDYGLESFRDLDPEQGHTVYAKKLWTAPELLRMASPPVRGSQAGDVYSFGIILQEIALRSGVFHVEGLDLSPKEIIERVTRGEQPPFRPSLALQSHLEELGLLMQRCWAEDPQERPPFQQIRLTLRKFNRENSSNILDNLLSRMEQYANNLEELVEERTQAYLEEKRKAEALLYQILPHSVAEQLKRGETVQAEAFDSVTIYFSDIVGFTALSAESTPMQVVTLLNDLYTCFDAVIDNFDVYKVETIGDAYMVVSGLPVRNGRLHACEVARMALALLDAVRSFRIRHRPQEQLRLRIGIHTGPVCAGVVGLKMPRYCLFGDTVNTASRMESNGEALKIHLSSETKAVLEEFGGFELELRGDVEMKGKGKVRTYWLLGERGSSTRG
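Compound pre-incubated 30 min at room temperature on GloSensor-loaded HEK293 cells stably carrying hNpr1 and the pGS-40F cGMP biosensor. Stimulation uses hNppA at 0.1 nM final; luminescence is taken at baseline and 20 min post-agonist.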
* marks the source's active call; other numbers are inactive results; ? = inconclusive; [ ] = dose if it differs, or a comment. % is set by controls: 0 for no effect and ±100 for the full control effect; potency is the fitted concentration of half-maximal effect. This is a subset; the hit share may differ from the screen's.

item	compound	NPR1 antag
1	CN(C)C(=O)CCC(=O)N1CCN(Cc2ccccc2)CC(O)C1 (stereo unspecified)	4.4%
2	Cc1noc(C)c1C(=O)N1CCCn2ccnc2C1c1cnn(C)c1 (stereo unspecified)	-0.5%
3	O=C(C1CCC1)N1CCCC(CN2CCOCC2)CC1 (stereo unspecified)	-4.8%
4	COc1ccc(-c2cc(N3CCC(NC(=O)c4ccc(N(C)C)cc4)CC3)n[nH]2)cc1	-6.0%
5	CCCCc1nn(CC(=O)NCC2Cc3ccccc3CN2C)c(=O)n1CC (stereo unspecified)	-0.2%
6	COCC[C@]1(O)CCN(C(=O)Nc2cccc(SC)c2)C[C@H]1C	1.0%
7	CCn1cc(-c2cc(-c3ccccc3OC)nc3c(C)noc23)cn1	-0.4%[70.6 µM]
8	Cc1oc(C(O)c2ccccc2)nc1C(=O)Nc1ccc2[nH]ccc2c1 (stereo unspecified)	-5.4%[70.6 µM]
9	CCN(CC)Cc1cnc2c(C(=O)NC(C)C(=O)N(C)C)cnn2c1 (stereo unspecified)	1.2%
10	COc1ccc(C(=O)N2CC(N(C3CCOCC3)S(C)(=O)=O)C2)cn1	9.0%
11	C=CCN(C)c1nc(C)nc2c1CCN(C(=O)N1CCOCC1)CC2	-6.8%
12	COCCNC(=O)[C@H]1C[C@H](Oc2ccccc2)CN1S(=O)(=O)c1cn(C)cn1	0.9%

Structural class, those above containing an NH in an aromatic ring
item	compound	NPR1 antag
4	COc1ccc(-c2cc(N3CCC(NC(=O)c4ccc(N(C)C)cc4)CC3)n[nH]2)cc1	-6.0%
8	Cc1oc(C(O)c2ccccc2)nc1C(=O)Nc1ccc2[nH]ccc2c1 (stereo unspecified)	-5.4%[70.6 µM]

Continuation:
item	compound	NPR1 antag
13	CCN(CC)[C@H]1[C@@H]2OC[C@@H](O2)[C@@H](NCc2ccccc2OC)[C@@H]1O	2.8%[70.6 µM]
14	CN1C[C@@H](NC(=O)Nc2ccccc2)C[C@H]1c1nc(Cc2ccccc2)no1	-2.3%[70.6 µM]
15	CSCC(=O)N[C@H]1CCN2C(=O)c3cc(-c4cccc(C)c4C)ccc3NC(=O)[C@H]12	-11.0%[70.6 µM]
16	Clc1cccc(-c2noc(-c3ccc(NCC4COCCO4)nc3)n2)c1 (stereo unspecified)	?
17	Cc1cc(C)n(CC(=O)N2CCc3nn(C)c(=O)n3CC2)n1	-2.0%
18	O=C(NC1CCN(c2cc(-c3ccc(F)cc3)[nH]n2)C1)c1ccccc1F (stereo unspecified)	-18.9%
19	COCCC1(C(=O)O)CCCN(CCS(C)(=O)=O)C1 (stereo unspecified)	0.7%
20	O=C(c1cncs1)N1CCn2nc(C(O)Cc3ccccc3)cc2C1 (stereo unspecified)	4.6%
21	Cc1nc(C(C)C)sc1C(=O)N[C@H]1C[C@H]2CN(C)CCN2C1	7.0%
22	COc1ccc(C)cc1NC(=O)CN1C(=O)NC(c2ccccc2Cl)C2=C1COC2=O (stereo unspecified)	3.1%
23	CCCc1cnc(C)nc1NCC1CNCCOC1 (stereo unspecified)	-1.9%
24	CCCN1CCN(C(=O)C2CCc3ncc(-c4ccsc4)n3C2)CC1 (stereo unspecified)	0.6%
25	COc1ccc(-c2cc(N3CCCC(NC(=O)c4cccc(N(C)C)c4)C3)n[nH]2)cc1 (stereo unspecified)	-17.5%
26	Cc1cc(=O)oc2cc(OCC(=O)NC3CCCc4c3[nH]c3ccccc43)ccc12 (stereo unspecified)	-14.0%
27	CCOC(=O)C1(Cc2ccccc2)CCNCC1	3.2%
28	CCCOc1ccc(-c2nc3ccc(-c4ccc(OC)c(OC)c4OC)cc3o2)cc1	-5.0%
29	COc1ccc(C(=O)N2CCCCCCNC(=O)[C@@H]3CCC[C@@H]32)c(OC)n1	0.6%
30	COc1ccccc1CCNC(=O)C1CC(c2ccc(F)c(C)c2)CN(C(=O)C2CC2)C1 (stereo unspecified)	-14.3%
31	CNC(=O)c1noc([C@@H]2CC(F)(F)CN2C(=O)C2CCC2)n1	8.2%
32	CCN1CC(NC(=O)c2cccc(S(=O)(=O)N(C)CCO)c2)CC1=O (stereo unspecified)	1.5%
33	COc1cc(OC)c(-c2c(-c3ccccc3)ncn2CCF)cc1OC	-19.5%
34	COc1ccc(-c2noc([C@@H]3CCCN3C(=O)c3ccc(F)c(Cl)c3)n2)cc1	1.2%
35	CCCNC(=O)N1CCC(O)(c2csc(CN3CC[C@@H](O)C3)n2)CC1	-0.1%[70.6 µM]
36	CCN1C(=O)C2(CCN(C(=O)c3c(C)noc3C)CC2)c2ccccc21	3.4%
37	O=C(Cc1c[nH]c2ncc(-c3ccccc3)cc12)NCCCn1ccnc1	-4.4%[70.6 µM]
38	CCn1ncnc1C(C)NC1CCC2(CCNCC2)CC1 (stereo unspecified)	3.9%
39	O=C(c1ncoc1C1CC1)N1CCOCC(O)(CN2CCCC2)C1 (stereo unspecified)	1.3%
40	CNC(=O)[C@@H]1CN(C(=O)NCc2cccc(OC)c2)C[C@H]1c1n[nH]c(C)n1	-14.1%
41	Cc1cc(C(=O)N2CCC(n3c(=O)[nH]c4ccccc43)CC2)ccc1Cl	-20.2%
42	O=c1c2c(CO)c(-c3ccccc3)nn2ccn1CCOc1ccccc1	-17.5%
43	CCc1cccc(NC(=O)c2ccc3c(c2)N(CC)C2CCCCCN2C3=O)c1 (stereo unspecified)	1.7%
44	CCN1C(=O)C2CC3(CCN(C(=O)Nc4ccc5c(c4)OCCO5)CC3)CN2C1=O (stereo unspecified)	0.3%
45	CC(=O)N1CCCC(C(=O)N2CCC(Cc3noc(C)n3)CC2)C1 (stereo unspecified)	0.6%
46	Cc1ccccc1-c1nc2cnccn2c1NCCC(=O)NC1CCCCC1	2.5%
47	COc1ccc(-c2noc(-c3nc(C4CC4)no3)n2)cc1	0.4%
48	CCn1ncc(N2CCC(NC(=O)c3cc(C)ccc3C)CC2)cc1=O	3.3%
49	Cc1cnc(CCNC(=O)Cc2cccc(F)c2)n1Cc1ccc(F)cc1	4.6%
50	Fc1ccc(-c2noc(-c3nnn4c3COC(c3ccc(Cl)cc3)C4)n2)cc1F (stereo unspecified)	-6.7%
51	COc1cncc([C@@H](NC(=O)c2ccc(CO)o2)C2CC(O)C2)c1 (stereo partly specified)	0.7%
52	Cc1ccc(CCNC(=O)c2ccc(Cn3ccn4nc5c(c4c3=O)CCCC5)cc2)cc1	?
53	CCN1CCN(c2nc3c(s2)CN(C(=O)c2ccncc2)CC3)CC1	-2.3%
54	N#Cc1cccc(CN(Cc2cccc(C#N)c2)[C@@H]2CO[C@H](CNC(=O)c3ccccc3)[C@H]2O)c1	0.6%
55	COc1ccc(C(=O)N2CCC3(CC2)N=C(c2cccc(Br)c2)NO3)cc1F	?
56	CN1CCC(N[C@@H]2CO[C@H](CNC(=O)C3CCCC3)[C@H]2O)CC1	5.3%[70.6 µM]
57	O=C(CCc1nc2ccccc2s1)N[C@@H]1CCOC[C@H]1OCCO	-1.6%
58	CN(C(=O)[C@@H]1C[C@H](c2ccc(F)cc2)N([S+](=O)([O-])C2CC2)C1)c1cccnc1	0.9%[70.6 µM]
59	CNC(=O)[C@@H](c1ccccc1F)N1CCC[C@H]1C(=O)NCc1cccnc1	2.1%
60	N#Cc1ccc(C(=O)N2CCC3(CC2)CC(CO)N(C(=O)c2ccccc2)C3)cc1 (stereo unspecified)	1.9%
61	CC(C(=O)N1CCN(c2cc(-c3ccc(Cl)cc3)[nH]n2)CC1)c1ccccc1 (stereo unspecified)	0.0%
62	O=C(CN1C(=O)NC(c2ccc(Cl)cc2)C2=C1COC2=O)Nc1ccc(C(F)(F)F)cc1 (stereo unspecified)	?
63	O=C(CN1CCNCC1)NCc1nc(-c2cccc(F)c2)c(-c2ccccn2)[nH]1	6.1%
64	CCCC(=O)N1CCC2(CC1)N(c1ccccc1)C(=O)CS2(=O)=O	-2.1%
65	Cc1onc(-c2cnn(C)c2NCc2ccc(C#N)cc2)c1C(=O)NCc1ccccc1	2.1%[70.6 µM]
66	Cc1nc(CN2Cc3nc(-c4ccccc4F)ccc3OCC2=O)cs1	0.7%[70.6 µM]
67	CN1CCN(c2cc(=O)c3ccnc(-c4ccccc4F)c3o2)CC1	0.4%[70.6 µM]
68	CCCNC(=O)N1CCN2C(=O)c3cc(-c4ccccc4F)ccc3NC(=O)[C@@H]2C1	-1.8%[70.6 µM]
69	Cc1n[nH]c(C)c1CNC(=O)CCC[C@@H]1[C@H]2CCCN3CCC[C@@H](CN1Cc1ccccc1)[C@@H]23	-1.1%
70	COc1cccc(CN2C[C@@H](F)[C@@H](OCc3nc4ccccc4n3C)C2)n1	-1.3%[70.6 µM]
71	CC1(Cc2ccc3c(c2)OCO3)CCCN(C(=O)N2CCOCC2)C1 (stereo unspecified)	-6.8%
72	CC(=O)NC1(C)CN(Cc2ccc(-c3cccc(F)c3)nc2)C1	4.5%[70.6 µM]

(further entries)
item	compound	NPR1 antag
73	COc1ccc(C(=O)N2CCC3(CC2)NC(=O)N(c2ccccc2Cl)N3)cc1F	-2.6%
74	COCC(=O)NC1CCC12CCN(S(=O)(=O)c1c(C)nn(C)c1C)CC2 (stereo unspecified)	0.1%
75	CC(C)C[C@@H]1N[C@H](C(=O)NCc2ccc(C#N)cc2)Cc2c[nH]c3cccc1c23	-11.0%[70.6 µM]
76	CCOC(=O)C1(Cc2cccc(OC)c2)CCCN(Cc2cccc(C)n2)C1 (stereo unspecified)	4.9%
77	O=C(NCc1ccc(F)cc1)N1CCC(Oc2ncccc2C(=O)N2CCOCC2)C1 (stereo unspecified)	3.4%
78	CC(=O)N1CCCC1c1nc(C2CN(Cc3ccc(F)c(Cl)c3)C2)no1 (stereo unspecified)	-1.1%
79	COc1ccc(NC(=O)c2c(OC)cc(=O)n3c2CCCC3)cc1OC	-1.6%
80	Cn1cncc1C(=O)N1C[C@@H](COCC2CC2)[C@H](c2ccncc2)C1	7.6%
81	CCOC(=O)C1=C(C)N=C2SC=C(CC(=O)NC3CC3)N2C1c1cccc([N+](=O)[O-])c1 (stereo unspecified)	-28.7%
82	COc1ccc(Cl)cc1C(=O)N1CCCN(c2cc(-c3ccccc3)[nH]n2)CC1	-17.1%
83	Cc1cc(S(=O)(=O)N2CC(C(=O)NC3CCCCC3)C3(CCOCC3)C2)ccc1F (stereo unspecified)	4.5%
84	Cc1nn(C)c(C)c1CCC(=O)N1CCC(Cc2noc(C3CCOCC3)n2)C1 (stereo unspecified)	1.2%

Arranged by molar mass (descending): 3 of the compounds above.
item	compound	NPR1 antag
79	COc1ccc(NC(=O)c2c(OC)cc(=O)n3c2CCCC3)cc1OC	-1.6%
33	COc1cc(OC)c(-c2c(-c3ccccc3)ncn2CCF)cc1OC	-19.5%
80	Cn1cncc1C(=O)N1C[C@@H](COCC2CC2)[C@H](c2ccncc2)C1	7.6%

(listing goes on)
item	compound	NPR1 antag
85	COc1ccc(CN2C(=O)COC[C@H]2C(=O)Nc2cc(C)c(Cl)cc2OC)cc1	-6.2%
86	COCCNC(=O)[C@@H]1C[C@H](Oc2ccccc2)CN1C(=O)C1(c2ccccc2)CC1	-1.0%
87	O=C([C@H]1Cc2ccccc2CN1)N1CCC(c2nccn2CC2CC2)CC1	-1.2%
88	COc1cccc(NC(=O)[C@@H]2C[C@@H](O)CN2C2CCN(C(=O)c3cccc(OC)c3)CC2)c1	6.3%
89	Cc1nn(-c2ccc(F)cc2)c(Oc2ccc(F)cc2F)c1CCC(=O)N1CCSCC1	-18.5%
90	COCC(=O)NC[C@H]1O[C@@H](CO)[C@@H](O)[C@H]1N1CCC(C)CC1	8.5%[70.6 µM]
91	O=C(Cn1ccc(=O)[nH]c1=O)N1CCCC(c2[nH]ncc2-c2ccc(F)cc2)C1 (stereo unspecified)	0.4%
92	NC(=O)[C@H](Cc1cccs1)NC(=O)[C@@H]1C[C@@H](NC(=O)c2cnccn2)CCN1C(=O)COCC(=O)O	3.7%
93	O=C(COc1ccc(F)cc1)N1CCOc2ccc(CN3CCc4ccccc4C3)cc2C1	?
94	O=C(CC1CNCCO1)N1CCc2nc(-c3ccc(Cl)cc3)[nH]c2C1 (stereo unspecified)	-0.3%
95	O=C(c1ccsc1)N1CCC(Cc2nc(C3CCOCC3)no2)CC1	?
96	COc1ccc(C(=O)N2CCCC(CN3CCOCC3)CC2)cc1 (stereo unspecified)	0.9%
97	Cn1nc(C(=O)NCc2nnc3ccc(-c4ccccc4)nn23)c2ccccc21	-10.2%
98	NS(=O)(=O)c1ccsc1C(=O)N1CCCC2(CCNCC2)CC1	0.8%
99	Cn1cccc1CN[C@H]1[C@H](O)[C@@H](N2CCC(C(N)=O)CC2)[C@@H]2OC[C@H]1O2	18.2%[70.6 µM]
100	O=C(Nc1ccc(Cl)cc1)N1CCCC(c2nn(-c3ccc(F)cc3)c(=O)[nH]2)C1 (stereo unspecified)	-26.9%
101	COc1cccc(CNC(=O)c2ccc3c(c2)CC(=O)N3Cc2ccccc2)c1	-8.4%
102	O=C([C@@H]1C[C@H](Oc2cccnc2)CN1C(=O)Nc1ccc2c(c1)OCCO2)N1CCCC1	0.7%
103	Cc1cccc(C(=O)N2C(C(=O)NC3CC3)COC23CCN(C(=O)C(C)(C)C)CC3)c1 (stereo unspecified)	-3.4%
104	CC(C)NC(=O)c1ccc(Cn2ccn3nc4c(c3c2=O)CCCC4)cc1	0.5%
105	CCNC(=O)N1CCCN(C)c2ccccc21	-12.8%
106	COc1ccc(CNC(=O)C[C@@H]2C[C@@H](C(C)C)[C@H](CC#N)C=C2C)cc1	-11.5%[70.6 µM]
107	CC1=C(C(=O)N(C)C)C(c2ccc(Cl)cc2)N2C(CC(=O)NCc3ccco3)=CSC2=N1 (stereo unspecified)	-2.2%
108	Cc1ccc(OC2CCN(Cc3ccncc3)CC2)c(C(=O)N(C)C2CCOCC2)c1	5.3%
